GIV Gai3 FP: inhibitors of GIV peptide binding to Galpha-i3, primary screen, biochemical, fluorescence polarization, FITC-GIV GBA peptide, rat Galphai3. 210,000 compounds, 0.42% hits. 90 min; active compounds read low; scaled: aluminum fluoride 0%, vehicle 100%. Guanine nucleotide-binding protein G(i) subunit alpha-3 (Rattus norvegicus), P08753. percent of control (FP), % (test concentration not listed);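 active means replicate mean at 85% of control or lower, very high polarization wells dropped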;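 further: lower values mean more displacement of the GIV peptide from Galpha-i3; wells of about 15 µL received 100 nL stock; the first replicate is given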
Target sequence (P08753 whole entry, looked up): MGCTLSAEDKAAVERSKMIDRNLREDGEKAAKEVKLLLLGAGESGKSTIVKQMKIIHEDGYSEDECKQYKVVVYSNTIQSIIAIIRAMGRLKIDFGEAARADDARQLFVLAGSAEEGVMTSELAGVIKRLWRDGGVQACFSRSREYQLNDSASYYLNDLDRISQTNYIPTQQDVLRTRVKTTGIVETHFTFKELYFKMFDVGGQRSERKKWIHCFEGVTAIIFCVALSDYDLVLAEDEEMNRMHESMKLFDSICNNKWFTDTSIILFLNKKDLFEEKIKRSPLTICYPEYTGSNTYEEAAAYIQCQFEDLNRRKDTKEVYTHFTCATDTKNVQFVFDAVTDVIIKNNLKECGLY
HCMV UL50-53 inh: inhibitors of HCMV UL50-UL53 interaction, biochemical, HTRF | 190,000 compounds, 0.15% hits | AID 1918969, 2023 | inhibition, % (no concentration beside the values) | HCMV UL50-UL53 nuclear egress complex (human cytomegalovirus) | normalized percent inhibition;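 active means both replicates at 50% or more, plus weaker picks with an unusually low signal ratio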;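 further: stock transfer was 100 nL into about 20 µL; 0% = negative control wells and 100% = wells with untagged competitor protein; inactives centre near -12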
Numbers without * were called inactive; . = no result given; & = joins results of further samples.

SMILES | GIV Gai3 FP | HCMV UL50-53 inh
CC1(c2ccccc2)CC(C)(C)N(C(=O)CN2CCOCC2)c2ccccc21 (configuration not stated) | 100.7 | .
COc1ccc(-c2noc(Cc3nc(-c4ccc(C)c(C)c4)cs3)n2)cc1 | 102.6 | .
c1cncc(-c2nc(-c3ccnc(N4CCCC4)c3)no2)c1 | 94.7 | .
CCCS(=O)(=O)c1nc2ccc(NS(=O)(=O)c3ccc(C)cc3C)cc2s1 | 95.0 | .
CCN(CC)CCCNC(=O)c1nnc(-c2ccc(S(=O)(=O)N3CCC(C)CC3)cc2)o1 | 106.6 | .
O=C(NCCC1=CCCCC1)C1CCCN(c2ncnc3c2oc2ccccc23)C1 (configuration not stated) | 104.1 | .
Cc1ccc(Cn2nc3c(S(=O)(=O)N4CCCCCC4)cccn3c2=O)cc1 | 105.8 | .
CCCS(=O)(=O)c1nc2ccc(NS(=O)(=O)c3cc(C)cc(C)c3)cc2s1 | 102.3 | .
O=c1n(CCOc2ccccc2)nc2c(S(=O)(=O)N3CCCC3)cccn12 | 102.9 | .
O=C(Nc1nnc(SCc2nnc(-c3ccccc3)o2)s1)c1cccc(Cl)c1 | 101.8 | .
c1cc2nnc(C3CCC3)n2nc1N1CCCC1 | 99.8 | .
CCOC(=O)c1c(C)nc2sc3c(c2c1-c1ccccc1)CCCC3 | 112.1 | .
Cn1c(=O)c2nc(SCCC(=O)Nc3ccc(N4CCOCC4)cc3)n(C)c2n(C)c1=O | 104.5 | .
Cc1ccc(-c2noc(C3CCCN3S(=O)(=O)c3ccc4c(c3)CCC4)n2)cc1 (configuration not stated) | 101.3 | .
CCn1nc(C)n2cc(S(=O)(=O)N3CCC(Cc4ccccc4)CC3)cc2c1=O | 96.0 | .
CN(CCNC(=O)C1CCc2nc(N3CCOCC3)ncc2C1)C1CCCCC1 (configuration not stated) | 105.1 | .
CCCC(Nc1nc(-c2ccc(NC(=O)NCC)c(OC)c2)ncc1C)c1cccnc1 (configuration not stated) | . | -7.4
O=c1cc(O)c(Cl)c[nH]1 | . | -3.9
CCOc1nc(NC(=O)Cc2cc(OC)ccc2OC)cc(N)c1C#N | . | -18.9
COc1cccc2cc(-c3nc(C4CCC(C(=O)O)CC4)n4ncnc(N)c34)[nH]c12 (configuration not stated) | . | -47.0&-8.5&-13.2&-20.7&-32.9
CCN1CC(C)n2c(c(O)c3c(=O)n(Cc4ccc(F)c(Cl)c4)nc(C(=O)NC)c32)C1=O (configuration not stated) | . | -60.0
COc1cc2ncn(-c3cc(OCc4ccccc4C(F)(F)F)c(C(N)=O)s3)c2cc1OC | . | -6.8&-8.1&-11.2&-7.4&-8.3
Cc1cnc(-c2cc(N3CCN(C(=O)CCS(C)(=O)=O)CC3)ncc2Cl)c(C)c1 | . | -1.2
CCc1cc(Nc2nccc(-c3c(-c4ccc(OC)c(C(=O)Nc5c(F)cccc5F)c4)nc4ccccn34)n2)c(OC)cc1N1CCC(N2CCN(S(C)(=O)=O)CC2)CC1 | . | -9.6
NC(=O)C1(N2CCCCC2)CCN(CCCC(=O)c2ccc(F)cc2)CC1 | . | -76.2
C[C@@]1(c2nc3c(C(N)=O)cccc3[nH]2)CCCN1 | . | -11.2
Nc1ccc(-c2cccc3c(=O)cc(N4CCOCC4)oc23)cc1 | . | -31.6&-2.2
COc1ccc(-c2cc(=O)c3c(O)cc(OC4OC(COC5OC(C)C(O)C(O)C5O)C(O)C(O)C4O)cc3o2)cc1O (configuration not stated) | . | -44.0
CCN(CC)C(=O)c1ccc(Nc2nc(OCC3CCCCC3)c3[nH]cnc3n2)cc1 | . | -22.7
CC(C)NCC(C(=O)N1CCN(c2ncnc3c2C(C)CC3O)CC1)c1ccc(Cl)cc1 (configuration not stated) | . | -21.1
Cc1cc2c(F)c(Oc3ncnn4cc(OCC(C)OC(=O)C(C)N)c(C)c34)ccc2[nH]1 (configuration not stated) | . | -25.3
COc1ccc([C@H]2CNC(=O)C2)cc1OC1CCCC1 | . | -11.2
CN1CCC(CNc2ccc3ncc(-c4cccc(OC(F)(F)F)c4)n3n2)CC1 | . | 10.1
COc1cc(CCc2cc(NC(=O)c3ccc(N4CC(C)NC(C)C4)cc3)n[nH]2)cc(OC)c1 (configuration not stated) | . | -6.0
Cc1cc(C)c2c(c1)[C@@H](N(Cc1cc(C(F)(F)F)cc(C(F)(F)F)c1)c1nnn(C)n1)CCCN2CC1CCC(C(=O)O)CC1 (some centres not stated) | . | -19.2
O=C(O)CCC/C=C\C[C@@H]1[C@@H](/C=C/C(=O)CCc2ccccc2)[C@H](O)C[C@@H]1O | . | -25.9&-25.9
CCC(=O)N1CCN(c2ccc(-n3c(=O)ccc4cnc5ccc(-c6cnc7ccccc7c6)cc5c43)cc2C(F)(F)F)CC1 | . | 14.4&11.8&-12.6&-7.9
COc1cc2c(cc1-c1c(C)noc1C)ncc1[nH]c(=O)n(C(C)c3ccccn3)c12 (configuration not stated) | . | 21.2
CC1COC(Nc2ccc3ncnc(Nc4ccc(OCc5nccs5)c(Cl)c4)c3c2)=N1 (configuration not stated) | . | -8.7
COC(=O)c1sccc1S(=O)(=O)Nc1ccc(Nc2ccccc2)cc1OC | . | -2.9
CC1(C)Oc2ccc(C#N)cc2[C@H](N2CCCC2=O)[C@H]1O (racemic) | . | -6.6
CC(=O)O[C@]1(C(C)=O)CC[C@H]2[C@@H]3C=C(Cl)C4=CC(=O)C5CC5[C@]4(C)[C@H]3CC[C@@]21C (some centres not stated) | . | -28.3
c1ccc(-c2cnc(Nc3ccc(OCCN4CCCC4)cc3)s2)cc1 | . | -33.7
CC(C)(O)CC(=O)NCCn1ccc2ncnc(Nc3ccc(Oc4cccc(C(F)(F)F)c4)c(Cl)c3)c21 | . | -0.4
CCOc1cc2ncc(C#N)c(Nc3ccc(OCc4ccccn4)c(Cl)c3)c2cc1NC(=O)C=CCN(C)C | . | -12.3&-17.4&-13.7&-11.2
CCCCNc1ccc(C(=O)OCCOCCOCCOCCOCCOCCOCCOCCOCCOC)cc1 | . | -14.1
CC1(C)CNc2cc(NC(=O)c3cccnc3NCc3ccncc3)ccc21 | . | -1.4&-12.0&-14.0&-10.6&-12.8&-12.0&-9.8&-9.2
CS(=O)(=O)c1ccc(-c2cnc(N)c(C(=O)Nc3ccccc3)n2)cc1 | . | -28.9
Cc1cccc(-c2nn3c(c2-c2ccnc4ccc(C(N)=O)cc24)CCC3)n1 | . | -29.2
CNC(=O)c1nn(C)c2c1C(C)(C)Cc1cnc(Nc3ccc(N4CCN(C)CC4)cc3)nc1-2 | . | 8.1
CC(C)c1cc(-c2n[nH]c(=O)n2-c2ccc3c(ccn3C)c2)c(O)cc1O | . | -2.3
CC(C(=O)O)c1ccc2c(c1)CC(=O)c1ccccc1S2 (configuration not stated) | . | -15.8
CC[C@H](CO)Nc1nc(NCc2ccc(-c3ccccn3)cc2)c2ncn(C(C)C)c2n1 | . | -14.0&9.8
COc1cc2c(cc1OC)-c1[nH]nc(Nc3cccc(F)c3)c1C2 | . | -34.8&5.8&5.8
C[N+]1(C)CCC(=C(c2ccccc2)c2ccccc2)CC1 | . | -20.7&-10.5
Cn1c(=O)c(Oc2ccc(F)cc2F)cc2cnc(NC3CCOCC3)nc21 | . | -25.3&-52.6&-69.2
C=CCn1c(=O)n([C@@H]2O[C@H](CO)[C@@H](O)[C@H]2O)c2nc(N)[nH]c(=O)c21 | . | -4.3
CCN(CC)CCNC(C(=O)OCCC(C)C)c1ccccc1 (configuration not stated) | . | -39.3
C#Cc1cccc(Nc2ncnc3cc(OC)c(OCCCCCCC(=O)NO)cc23)c1 | . | -14.8
Cc1ccc(NC(=O)C2(c3ccc4c(c3)OC(F)(F)O4)CC2)nc1-c1cccc(C(=O)O)c1 | . | 4.4
Carrying on:
SMILES | GIV Gai3 FP | HCMV UL50-53 inh
CCCCCCCCCCCCCCC[C@H](O)[C@@H](N)CO | . | -0.9
COc1nccc(-c2c(-c3ccc(F)cc3)ncn2C2CCC(O)CC2)n1 (configuration not stated) | . | 18.2&-1.6&-8.3&-6.9&-13.8&-10.5
O=C(NC1CCOCC1)c1ccc(-c2cc(-c3cn[nH]c3-c3ccccn3)ccn2)cc1 | . | 3.6
c1cc(-c2cnn3cc(-c4ccc(N5CCNCC5)cc4)cnc23)c2cccnc2c1 | . | -63.5
CCc1cccc(CC)c1NC(=O)N1Cc2[nH]nc(NC(=O)c3ccc(N4CCN(C)CC4)cc3)c2C1 | . | -7.9
CC(C)(Cc1ccc2ccccc2c1)NCC(O)COc1cccc(Cl)c1C#N (configuration not stated) | . | -13.8
CN1CCN(c2ccc(OC(F)(F)F)c(Nc3ncc4c(n3)-c3c(c(C(N)=O)nn3CCO)CC4)c2)CC1 | . | -0.4
CNC(=O)c1c(F)cccc1Nc1nc(Nc2cc3c(cc2OC)CCN3C(=O)CN(C)C)nc2[nH]ccc12 | . | 21.2
CC(C)COC(=O)c1ccc(N)cc1 | . | -64.9
CCn1cc(C(=O)O)c(=O)c2cnc(N3CCNCC3)nc21 | . | -16.9
COc1cc(Oc2ccnc3cc(OC)c(OC)cc23)ccc1NC(=O)NC(C)c1nccs1 (configuration not stated) | . | -22.8&-9.0&-31.8

Gathered by group, the entries above with fluorine
SMILES | GIV Gai3 FP | HCMV UL50-53 inh
CCN1CC(C)n2c(c(O)c3c(=O)n(Cc4ccc(F)c(Cl)c4)nc(C(=O)NC)c32)C1=O (configuration not stated) | . | -60.0
COc1cc2ncn(-c3cc(OCc4ccccc4C(F)(F)F)c(C(N)=O)s3)c2cc1OC | . | -6.8&-8.1&-11.2&-7.4&-8.3
CCc1cc(Nc2nccc(-c3c(-c4ccc(OC)c(C(=O)Nc5c(F)cccc5F)c4)nc4ccccn34)n2)c(OC)cc1N1CCC(N2CCN(S(C)(=O)=O)CC2)CC1 | . | -9.6
NC(=O)C1(N2CCCCC2)CCN(CCCC(=O)c2ccc(F)cc2)CC1 | . | -76.2
Cc1cc2c(F)c(Oc3ncnn4cc(OCC(C)OC(=O)C(C)N)c(C)c34)ccc2[nH]1 (configuration not stated) | . | -25.3
CN1CCC(CNc2ccc3ncc(-c4cccc(OC(F)(F)F)c4)n3n2)CC1 | . | 10.1
Cc1cc(C)c2c(c1)[C@@H](N(Cc1cc(C(F)(F)F)cc(C(F)(F)F)c1)c1nnn(C)n1)CCCN2CC1CCC(C(=O)O)CC1 (some centres not stated) | . | -19.2
CCC(=O)N1CCN(c2ccc(-n3c(=O)ccc4cnc5ccc(-c6cnc7ccccc7c6)cc5c43)cc2C(F)(F)F)CC1 | . | 14.4&11.8&-12.6&-7.9
CC(C)(O)CC(=O)NCCn1ccc2ncnc(Nc3ccc(Oc4cccc(C(F)(F)F)c4)c(Cl)c3)c21 | . | -0.4
COc1cc2c(cc1OC)-c1[nH]nc(Nc3cccc(F)c3)c1C2 | . | -34.8&5.8&5.8
Cn1c(=O)c(Oc2ccc(F)cc2F)cc2cnc(NC3CCOCC3)nc21 | . | -25.3&-52.6&-69.2
Cc1ccc(NC(=O)C2(c3ccc4c(c3)OC(F)(F)O4)CC2)nc1-c1cccc(C(=O)O)c1 | . | 4.4
COc1nccc(-c2c(-c3ccc(F)cc3)ncn2C2CCC(O)CC2)n1 (configuration not stated) | . | 18.2&-1.6&-8.3&-6.9&-13.8&-10.5
CN1CCN(c2ccc(OC(F)(F)F)c(Nc3ncc4c(n3)-c3c(c(C(N)=O)nn3CCO)CC4)c2)CC1 | . | -0.4
CNC(=O)c1c(F)cccc1Nc1nc(Nc2cc3c(cc2OC)CCN3C(=O)CN(C)C)nc2[nH]ccc12 | . | 21.2

Two of the compounds above, with each value named:
> CCn1cc(C(=O)O)c(=O)c2cnc(N3CCNCC3)nc21
- GIV Gai3 FP: .
- HCMV UL50-53 inh: -16.9

> COc1cc(Oc2ccnc3cc(OC)c(OC)cc23)ccc1NC(=O)NC(C)c1nccs1 (configuration not stated)
- GIV Gai3 FP: .
- HCMV UL50-53 inh: -22.8&-9.0&-31.8

Only part of the results is shown, so the mix of outcomes need not match the whole.
